Assay outcomes as filed in PubChem.
YopH inh = YopH tyrosine phosphatase inhibitors, primary screen, biochemical, fluorescence Ex485/Em525; YopH tyrosine phosphatase [Yersinia enterocolitica]; inhibition, %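 (about 10 µM by stock and volumes)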; 140,000 compounds, 0.16% hits; AID 898, 2007;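 active means inhibition of 50% or more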;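 further: controls were vehicle for no effect and minimum signal wells for full effect; inactives centre near -20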
Mtb H37Rv = M. tuberculosis H37Rv growth inhibitors, H37Rv strain (AID 1626). M. tuberculosis H37Rv growth inhibition; higher % means a stronger effect. inhibition, % at 10 µM; hits with a dose series show IC50 in µM. 220,000 compounds, 0.95% hits;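 active means confirmed in a dose series; inconclusive means inhibition above 80% but not taken into the dose series; inactive means below 80% or under 30% at every dose of the series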;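 further: bacteria incubated seven days before Alamar blue readout; 0% = bacteria only wells and 100% = bacteria with antibiotic wells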
RecA intein inh = Mtb RecA intein splicing inhibitors, primary screen, biochemical, fluorescence, HTS. 290,000 compounds, 0.75% hits. inhibition, %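 (about 9 µM by stock and volumes)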. Protein RecA (Mycobacterium tuberculosis (strain ATCC 25618 / H37Rv)), P9WHJ3. cell-free RecA intein splicing; in the data active means inhibition above about 30%; inconclusive means no clear call, values can overlap the other calls;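 further: 0% = vehicle wells and 100% = reference inhibitor control wells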
Target sequence (P9WHJ3 whole entry, looked up): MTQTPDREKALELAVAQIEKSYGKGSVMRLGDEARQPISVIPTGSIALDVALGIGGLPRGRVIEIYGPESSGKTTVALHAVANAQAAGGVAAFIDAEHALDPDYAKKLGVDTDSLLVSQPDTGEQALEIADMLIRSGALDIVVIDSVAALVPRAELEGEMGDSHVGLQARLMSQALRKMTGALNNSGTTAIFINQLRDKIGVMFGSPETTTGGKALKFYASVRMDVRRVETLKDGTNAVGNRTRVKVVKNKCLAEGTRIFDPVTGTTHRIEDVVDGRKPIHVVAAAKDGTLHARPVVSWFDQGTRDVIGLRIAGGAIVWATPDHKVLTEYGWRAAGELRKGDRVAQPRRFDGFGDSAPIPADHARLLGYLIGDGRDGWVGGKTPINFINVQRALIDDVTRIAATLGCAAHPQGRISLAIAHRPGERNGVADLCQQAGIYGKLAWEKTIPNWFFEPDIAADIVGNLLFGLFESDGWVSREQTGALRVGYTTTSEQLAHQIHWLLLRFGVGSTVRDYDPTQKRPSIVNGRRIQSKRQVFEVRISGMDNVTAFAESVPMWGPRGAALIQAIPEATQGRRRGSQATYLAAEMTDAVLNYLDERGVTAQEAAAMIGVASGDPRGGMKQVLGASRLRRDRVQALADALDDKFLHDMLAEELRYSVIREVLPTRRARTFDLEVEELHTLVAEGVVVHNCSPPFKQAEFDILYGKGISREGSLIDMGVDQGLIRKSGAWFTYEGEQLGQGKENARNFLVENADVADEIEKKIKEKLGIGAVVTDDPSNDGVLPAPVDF
Mtb bLac sens = beta-lactam sensitization of Mtb H37Rv, H37Rv; M. tuberculosis H37Rv growth with meropenem, percent inhibition; hits of this screen are not shown here; inhibition, % at 25 µM; 330,000 compounds, 0.27% hits; AID 434955, 2010;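 active means about 74% or more and at least 40 points above the plate without the antibiotic, then above 30% in a dose series; inconclusive means first-round hits that could not be retested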;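 further: growth measured after seven days incubation then overnight dye step; 0% = bacteria only wells and 100% = bacteria with antibiotic; twin plates without the antibiotic show which effects depend on it; some results filed as inactive read as strong as hits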
Arbovirus inh = antivirals against arbovirus infection, primary screen, cell-based, full library, 10K replicate subset; arbovirus infection cell-based antiviral screen; inhibition, % at 10 µM; 200,000 compounds, 0.37% hits; AID 1251, 2008;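 active means inhibition from about 30%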;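 further: bluetongue infection of BSR cells; cell survival read as ATP light after 72 h; 0% = infected wells without compound and 100% = uninfected wells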
Arbovirus inh repeat = further read-out of Arbovirus inh, marked with its call; inhibition, %; measured here: 10K subset replicate screen; many hits read low in the repeat;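 first of two repeat runs on a subset; 0% = infected and 100% = uninfected wells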
The depositor's hits bear a star; ? = inconclusive; / = not tested or not shown. These rows are one share of the data; rates above refer to the full screens.

SMILES	YopH inh	Mtb H37Rv	RecA intein inh	Mtb bLac sens	Arbovirus inh	others
O=C(Nc1ccc2oc(=O)ccc2c1)c1ccc(-c2cccc(Cl)c2)o1	/	1%	4.0	-9	/
O=C(Cn1cc([N+](=O)[O-])cn1)Nc1nccs1	/	-3%	-0.1	-7	0
COc1ccc(-c2noc(N3CCC(C(=O)NCCCN4CCCCC4)CC3)n2)cc1	/	/	-4.5	6	/
COC(=O)[C@@H]1C[C@@]2(O)[C@@H](O)[C@@H](O)[C@@H](O)C[C@H]2N1C/C=C/c1ccccc1	/	-8%	-0.5	-2	/
COc1ccc(CNC(=O)c2csnn2)cc1	-26	10%	0.2	?	1
CCCOc1ccc(-c2c(C(=O)N/N=C/c3ccco3)nnn2-c2nonc2N)cc1	/	/	1.0	-1	/
CCOc1ccccc1NC(=O)COc1ccc2ccc(=O)oc2c1	/	/	0.6	-4	/
Cc1ccc(N=Nc2ccc(O)cc2)c(Br)c1	/	/	17	94	/
CCCCC(=O)Nc1cc(NC(=O)CCCC)cc(C(=O)O)c1	25	-11%	/	8	-5
COC(=O)C(O)(c1ccc(N(C)S(=O)(=O)c2ccccc2)cc1)C(F)(F)F (stereo not given)	4	-8%	1.3	-6	6	Arbovirus inh repeat=0
CCc1nnc(NC(=O)CSc2nnc3scc(-c4ccc(C)cc4)n23)s1	-37	-2%	1.0	-1	/
O=C(Nc1ccc(C(=O)N2CCCC2)cc1)c1ccccc1Br	/	/	-2.2	-7	/
COc1cccc(NC(=O)CCCCCn2nnc3ccccc3c2=O)c1	/	/	0.5	-9	/
COCCNc1cc(C)nc2ccccc12	5	-2%	-1.1	11	5
CCOC(=O)Cc1cc(=O)n2[nH]c(C)c(C#N)c2n1	-30	-7%	-1.6	-4	6
[O-][n+]1c2c(nn1-c1ccccc1)/C(=N/O)CCC2	/	-10%	-0.3	-4	2
C=CCn1c(C(C)NC(=O)c2ccc(C)cc2)n[nH]c1=S (stereo not given)	-40	-1%	-0.5	-1	9
NS(=O)(=O)c1ccc(CCNC(=O)CNC(=O)COc2ccccc2)cc1	/	/	-7.2	-1	/
COc1cccc(NC(=O)CN2C(=O)NC(C)(CC(C)C)C2=O)c1 (stereo not given)	/	-3%	2.4	-4	6
COc1ccc(N2CCCC2=N)c(OC)c1	/	-2%	/	-8	/
COc1ccc(CC(=O)NNC(=O)c2cccnc2)cc1OC	/	-1%	/	-5	3
Cc1ccc(OCC(=O)Nc2ccc(N3CCN(S(C)(=O)=O)CC3)cc2)c(C)c1	/	-1%	-3.3	-1	-7
CC(=O)NC(Cc1ccc(C)cc1)C(=O)NC1CCN(C(=O)c2cnccn2)CC1 (stereo not given)	10	-15%	0.8	-8	5
CCOC(=O)c1ccc(N2C(=O)CC(N3CCC(O)(c4ccc(Cl)cc4)CC3)C2=O)cc1 (stereo not given)	-3	1%	1.0	0	9
Cc1cc(NCCOCCO)n2c(nc3ccccc32)c1C#N	/	/	-83	-3	/
COc1ccc(S(=O)(=O)N2CCCC(C(=O)N3CCCCCC3)C2)cc1 (stereo not given)	-21	-15%	2.3	4	3
O=c1[nH]c(-c2ccccn2)nc2ccccc12	-48	5.9µM*	-2.4	96	-29
Cc1ccc(C)c(NC(=S)NCCSc2ccc(Cl)cc2)c1	-32	24%	12	5	-40
Cc1nn(-c2ccccc2)c(C)c1/C=C/C(=O)OCC(=O)NC1CCS(=O)(=O)C1 (stereo not given)	/	3%	0.4	-8	2
N#Cc1ccc(Cn2c(-c3ccc(F)cc3)noc2=O)cc1	/	/	-1.8	1	/
COc1ccc(S(=O)(=O)N2CCC(C(=O)NCCC3=CCCCC3)CC2)cc1OC	-42	-2%	0.3	0	1	Arbovirus inh repeat=3
Cc1ccc(N(C)S(=O)(=O)c2cccc(C(=O)NC3CC(C)(C)NC(C)(C)C3)c2)cc1	/	/	0.6	1	/
Cc1nc(CSc2ccc(Cl)cc2)cc(NCc2ccccc2)n1	-7	4%	14	12	-12
CC1=C(C(=O)OC(C)C)C(c2ccncc2)n2ncnc2N1 (stereo not given)	-11	-6%	-1.5	0	-1
CN1CCC(=O)N([C@H](CSc2ccccc2)c2ccccc2)CC1	/	/	1.9	-6	/
O=C(NCc1ccc2c(c1)OCO2)C1CCN(C(=O)Nc2ccc(Cl)cc2)CC1	-20	-6%	-1.9	3	-11
COC(=O)CCC(=O)Nc1cccc2ccccc12	17	-13%	0.4	-7	3
O=C(N=C1SC2CS(=O)(=O)CC2N1c1ccccc1Cl)C1CCCO1 (stereo not given)	/	/	-1.5	-6	/
O=C(CCS(=O)(=O)c1cccs1)Nc1ccc(C(=O)NC2CCCC2)cc1	/	0%	-1.3	2	-8
COC(=O)Cc1[nH]nc2c1C1(C(=O)N(Cc3ccccc3)c3ccccc31)C(C#N)=C(N)O2 (stereo not given)	-22	-14%	6.0	-6	-4
COCc1nnc(NS(=O)(=O)c2ccc(C)cc2)s1	-42	-5%	4.0	0	-4
COc1ccc(C2N(c3ccc(F)cc3)C(=O)C3CCCN32)cc1 (stereo not given)	-27	-4%	0.0	?	2
NS(=O)(=O)c1ccc(CCNC(=O)C(=O)NCC2OCCN2S(=O)(=O)c2ccc(Cl)cc2)cc1 (stereo not given)	/	/	-2.9	1	/
CN(C)c1ccc(CN(C)C2CCCCC2)cc1	-14	-1%	-1.6	2	-4	Arbovirus inh repeat=9
CCOC(=O)N1CCN(c2nnc(-c3ccccc3)c3ccccc23)CC1	/	/	0.7	0	/
NCCCCCC(=O)Nc1ccncc1	/	-11%	-1.0	-3	/
COc1cccc(NC(=O)CN(C)C(=O)CSc2ncnc3sc(C)c(C)c23)c1	/	/	-2.4	-5	/
CN1CC(=O)Nc2ccc([N+](=O)[O-])cc2C1=O	/	/	-3.1	5	/
S=C(Nc1ccc(Br)cc1)NC1CCCCC1	-23	2%	10	-4	-2
CCc1ccc(NC(=O)/C(C#N)=C/c2cc3ccc(C)cc3nc2N2CCOCC2)cc1	1	7%	-11	4	-22
COC(=O)c1ccc(C(=O)NCCCCO)cc1	/	0%	-1.0	0	2
CCN1CCN(S(=O)(=O)c2ccc(Cl)c(C(=O)N(C)C(c3ccccc3)c3ccccc3)c2)CC1	/	/	4.3	-4	/
Cc1ccc(/C=C2\SC(=S)N(CCCC(=O)Nc3ccccc3C(=O)O)C2=O)cc1	/	/	2.8	1	/
N#Cc1c(-c2ccc(F)cc2)noc1N	-26	2%	25	3	3
CCCCNC(=O)N1CCc2[nH]c3ccccc3c2C1	/	/	-71	-2	/
CCSc1ncc(Cl)c(C(=O)Nc2cc(C)ccc2C)n1	/	-6%	-2.6	-9	/
COC/C=C/C1=CC2=CC(=O)C(C)(OC(=O)c3cnc4ccccc4n3)C(=O)C2=CN1CCN1CCOCC1 (stereo not given)	/	0%	2.0	-3	/
COc1cccc(NC(=S)NN=C2CCCCCC2)c1	/	3%	2.3	/	8
Cc1ccsc1/C=N/NC(=O)CN1CCN(S(=O)(=O)c2ccc(Br)cc2)CC1	-18	/	4.8	-5	-5
Cc1cccc(-n2c(SCc3ccc([N+](=O)[O-])cc3)nnc2-c2c[nH]c3ccccc23)c1	/	-1%	3.4	7	-1

As a short view, 2 of the compounds above:
SMILES	YopH inh	Mtb H37Rv	RecA intein inh	Mtb bLac sens	Arbovirus inh	others
COC/C=C/C1=CC2=CC(=O)C(C)(OC(=O)c3cnc4ccccc4n3)C(=O)C2=CN1CCN1CCOCC1 (stereo not given)	/	0%	2.0	-3	/
COc1cccc(NC(=S)NN=C2CCCCCC2)c1	/	3%	2.3	/	8

Pulled by structure from above (2):
SMILES	YopH inh	Mtb H37Rv	RecA intein inh	Mtb bLac sens	Arbovirus inh	others
CCc1ccc(NC(=O)/C(C#N)=C/c2cc3ccc(C)cc3nc2N2CCOCC2)cc1	1	7%	-11	4	-22
COc1cccc(NC(=S)NN=C2CCCCCC2)c1	/	3%	2.3	/	8

Back to the main list, starting five compounds before the break.
SMILES	YopH inh	Mtb H37Rv	RecA intein inh	Mtb bLac sens	Arbovirus inh	others
CCSc1ncc(Cl)c(C(=O)Nc2cc(C)ccc2C)n1	/	-6%	-2.6	-9	/
COC/C=C/C1=CC2=CC(=O)C(C)(OC(=O)c3cnc4ccccc4n3)C(=O)C2=CN1CCN1CCOCC1 (stereo not given)	/	0%	2.0	-3	/
COc1cccc(NC(=S)NN=C2CCCCCC2)c1	/	3%	2.3	/	8
Cc1ccsc1/C=N/NC(=O)CN1CCN(S(=O)(=O)c2ccc(Br)cc2)CC1	-18	/	4.8	-5	-5
Cc1cccc(-n2c(SCc3ccc([N+](=O)[O-])cc3)nnc2-c2c[nH]c3ccccc23)c1	/	-1%	3.4	7	-1
Oc1cccc(Nc2nc(O)c(/C=C3\C=Nc4ccccc43)s2)c1	/	17%	/	-1	/
CC(OC(=O)C1=Cc2ccccc2OC1)C(=O)NC1CCCC1 (stereo not given)	-29	-4%	-2.6	11	8
O=C(C1CCN(Cc2ccccc2)CC1)N1CCCC1	-25	/	-1.6	-2	1
COc1cccc(N2CCN(C(=O)CSc3ccc(F)cc3)CC2)c1	/	-4%	-2.1	-4	16
CCOc1ccc(NC(=O)N2CCC(NC(=O)C(Cc3ccc(OC)c(OC)c3)NC(C)=O)CC2)cc1 (stereo not given)	6	-11%	1.3	-14	-2
CN1C(=O)CSc2ccc(NC(=O)N3CCN(c4ccccn4)CC3)cc21	5	7%	-3.9	7	3
Cc1cc(C(=O)N2CCN(c3ccc([N+](=O)[O-])cc3)CC2)no1	-15	2%	4.8	-2	7
Nc1ccc2c(c1)nnn2-c1ccccc1	/	76%	-2.2	97	/
CCCn1c(C)cc(=O)c2cc(NC(=O)c3ccccn3)ccc21	-32	13%	-4.8	27	-12
Cc1ccn2c(NC3CCCCC3)c(C)nc2c1	-45	3%	-1.9	4	10
COc1ccc(C(C)=O)cc1CC(C(=O)c1ccc(F)cc1)N(C)C (stereo not given)	-23	-18%	1.1	-2	-1
CCn1c(=O)c(C(=O)NNS(=O)(=O)c2ccc(Cl)cc2)c(O)c2ccccc21	-26	-4%	-6.0	-1	-6
COc1cc(/C=N/Nc2nc3ccccc3[nH]c2=O)ccc1O	/	-5%	-3.1	3	4
Cc1cccc(N2CCc3c2nc2ccc(Br)cc2c3N)c1	-28	13%	4.0	94	-6
O=C(CNC(=O)c1ccc(Br)o1)Nc1ncccc1O	/	/	-6.5	-12	/
Cc1cc(=O)[nH]c(N/N=C/c2cccs2)n1	7	4%	-2.0	?	-7
O=C(NCCC(=O)N(CCc1ccccc1)Cc1ccccc1)c1ccc([N+](=O)[O-])cc1	/	/	6.8	3	/
O=C(CC1C(=O)NCCN1C(=O)Nc1ccccc1)Nc1cc(Cl)ccc1Cl (stereo not given)	/	/	-1.3	-10	/
Cc1cc(Nc2ccc3ccccc3c2)n2ncnc2n1	-25	31%	/	36	-6
C=CCn1c(SCC(=O)Nc2sccc2C#N)nc2sc(C)c(C)c2c1=O	-6	-9%	4.9	10	-7
COc1ccc(-c2c(C#N)c(C)nc3c2C(=O)c2ccccc2-3)cc1	-34	12%	-1.7	-7	0
Cc1ccc2oc(=O)n(CCC(=O)Nc3ccc(N4CCOCC4)cc3)c2c1	/	/	0.8	-8	/
CCOC(=O)Cn1c2ccccc2n2nc(CCC(=O)O)c(=O)nc12	/	-1%	3.5	1	-6
O=C(Nc1ccc2c(c1)OCO2)C1CCCN1C(=O)Nc1ccccc1 (stereo not given)	/	/	1.5	-4	/
O=C(CCC(NC(=O)OCc1ccccc1)C(=O)OCc1ccccc1)NCC(=O)OCc1ccccc1 (stereo not given)	-11	-3%	14	-4	1
O=C(NC1CCCCC1)c1cc(-c2ccc(F)cc2)on1	/	/	-3.8	10	/
Cc1ccc(Cn2c(-n3nc(C)cc3C)nc3c2c(=O)[nH]c(=O)n3C)cc1	-43	4%	-1.6	-7	2
CCOC(=O)C1CCCN(S(=O)(=O)c2ccc3c(c2)C(C)(C)C(=O)N3C)C1 (stereo not given)	/	/	-2.2	4	/
CCOc1ccccc1NS(=O)(=O)N(C)C	-4	5%	-1.0	12	-1
CCN1C(=O)CC(C(=O)NC)SC1=Nc1cc(Cl)c(O)c(Cl)c1 (stereo not given)	-36	1%	0.6	16	13
Nc1ccc2nc(Cc3ccccc3)[nH]c2c1	/	0%	30*	-1	/
NC(=O)COC(=O)c1oc2ccccc2c1CSc1ccc(Cl)cc1	-14	13%	/	6	29
O=C(Nc1ccccc1OC(F)F)C1CCCN1C(=O)c1cccs1 (stereo not given)	-22	1%	5.0	4	0
O=C(CNC(=O)c1ccccc1)OC(C(=O)Nc1cc(C(F)(F)F)ccc1Cl)c1ccccc1 (stereo not given)	-7	-7%	-0.2	0	9
